rRNA inh HTS: inhibits bacterial ribosomal RNA function over humanized ribosomes | E. coli WT GFP vs humanized-ribosome RFP mutants, fluorescence, 24 h; hits give low values; DMSO median 0, no signal -100 | GFP signal change (wild-type ribosome), % (concentration not given with the values) | actives 1.6% (n = 350,000);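 active = significant combined selectivity score with lowered wild-type GFP, culture density cut under 30%, mutant RFP and density less affected; inactive = any of these conditions unmet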; note: one replicate is shown; some compounds called inactive have numbers as strong as hits
rRNA inh HTS OD600: further read-out of rRNA inh HTS, marked with its call; OD600 change, %; measured here: OD600 growth;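 optical density of the mix in the first replicate; 0 = DMSO median and -100 = no signal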
rRNA inh HTS RFP: further read-out of rRNA inh HTS, marked with its call; RFP signal change, %; measured here: RFP humanized mutant strains;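 first replicate; 0 = DMSO median and -100 = no signal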
Active calls of the source: *; & = joins results of further samples.

The opening nine records (preview)
SMILES	rRNA inh HTS	rRNA inh HTS OD600	rRNA inh HTS RFP
C[C@@H]1CN([C@H](C)CO)C(=O)c2cc(NS(=O)(=O)c3cn(C)cn3)ccc2O[C@@H]1CN(C)C(=O)Nc1ccc2c(c1)OCO2	4	-5	-1.5
O=C(NCC(F)(F)F)[C@H]1[C@H](CO)[C@H]2Cn3c(cccc3=O)[C@@H]1N2CC1CC1	1	-1	0.5
Cc1ccc(S(=O)(=O)Nc2ccc3c(c2)C(=O)N([C@@H](C)CO)C[C@H](C)[C@H](CN(C)C(=O)Nc2c(C)noc2C)OCCCC[C@@H](C)O3)cc1	0	8	-1.2
O=C(NCC[C@H]1CC[C@@H](NC(=O)Nc2cc(F)ccc2F)[C@@H](CO)O1)Nc1ccc(F)cc1	-5	-5	2.3
CC(C)NC(=O)Nc1ccc2c(c1)C(=O)N([C@@H](C)CO)C[C@H](C)[C@@H](CN(C)C(=O)CCC(F)(F)F)OCCCC[C@H](C)O2	0	9	0.7
O=C(c1cccc(F)c1)N1CC(=O)N2[C@H](C1)[C@H](c1ccc(-c3cccnc3)cc1)[C@@H]2CO	0	19	-1.4
C[C@@H]1CN([C@H](C)CO)C(=O)c2cc(-c3cccc(F)c3)cnc2O[C@H]1CN(C)C(=O)C1CCCCC1	-5	12	1.1
CC(C)NC(=O)Nc1ccc2c(c1)CC(=O)N([C@@H](C)CO)C[C@@H](C)[C@@H](CN(C)S(=O)(=O)c1cn(C)cn1)O2	-2	-4	-3.0
O=C(Nc1cc(Cl)cc(Cl)c1)N[C@H]1CC[C@@H](CCNS(=O)(=O)c2cccc(F)c2)O[C@@H]1CO	-58	-81	-16

This part in full, from the start:
SMILES	rRNA inh HTS	rRNA inh HTS OD600	rRNA inh HTS RFP
C[C@@H]1CN([C@H](C)CO)C(=O)c2cc(NS(=O)(=O)c3cn(C)cn3)ccc2O[C@@H]1CN(C)C(=O)Nc1ccc2c(c1)OCO2	4	-5	-1.5
O=C(NCC(F)(F)F)[C@H]1[C@H](CO)[C@H]2Cn3c(cccc3=O)[C@@H]1N2CC1CC1	1	-1	0.5
Cc1ccc(S(=O)(=O)Nc2ccc3c(c2)C(=O)N([C@@H](C)CO)C[C@H](C)[C@H](CN(C)C(=O)Nc2c(C)noc2C)OCCCC[C@@H](C)O3)cc1	0	8	-1.2
O=C(NCC[C@H]1CC[C@@H](NC(=O)Nc2cc(F)ccc2F)[C@@H](CO)O1)Nc1ccc(F)cc1	-5	-5	2.3
CC(C)NC(=O)Nc1ccc2c(c1)C(=O)N([C@@H](C)CO)C[C@H](C)[C@@H](CN(C)C(=O)CCC(F)(F)F)OCCCC[C@H](C)O2	0	9	0.7
O=C(c1cccc(F)c1)N1CC(=O)N2[C@H](C1)[C@H](c1ccc(-c3cccnc3)cc1)[C@@H]2CO	0	19	-1.4
C[C@@H]1CN([C@H](C)CO)C(=O)c2cc(-c3cccc(F)c3)cnc2O[C@H]1CN(C)C(=O)C1CCCCC1	-5	12	1.1
CC(C)NC(=O)Nc1ccc2c(c1)CC(=O)N([C@@H](C)CO)C[C@@H](C)[C@@H](CN(C)S(=O)(=O)c1cn(C)cn1)O2	-2	-4	-3.0
O=C(Nc1cc(Cl)cc(Cl)c1)N[C@H]1CC[C@@H](CCNS(=O)(=O)c2cccc(F)c2)O[C@@H]1CO	-58	-81	-16
C[C@@H]1CN([C@H](C)CO)C(=O)c2cccc(NC(=O)Nc3ccc4c(c3)OCO4)c2O[C@@H]1CN(C)CC1CCCCC1	-1	-3	-1.5
O=C(Nc1ccc(Cl)c(Cl)c1)N[C@@H]1CC[C@@H](CCn2cc(C3CCCCC3)nn2)O[C@H]1CO	-42*	-26*	-1.6*
CC(C)C#Cc1ccc([C@@H]2[C@@H](CO)N3C(=O)CN(C(=O)Cc4ccccc4)C[C@@H]23)cc1	-40	-57	15
COC(=O)[C@@H]1[C@@H](CO)[C@@H]2Cn3c(ccc(-c4ccccc4OC)c3=O)[C@@H]2N1CC1CCCC1	-3	-3	1.9
CN1c2ccc(-c3cccc(C#N)c3)cc2[C@@H]2[C@@H](CCN2C(=O)Nc2cc(F)ccc2F)[C@@H]1CO	-5	-2	-0.2
COc1ccc(-c2cnc3c(c2)C(=O)N([C@@H](C)CO)C[C@H](C)[C@H](CN(C)C(=O)NC2CCCC2)O3)cc1	1	7	0.7
O=C(NCC[C@H]1CC[C@@H](NC(=O)C2CC2)[C@@H](CO)O1)c1cc(Cl)cc(Cl)c1	-2	2	-1.7
C[C@@H]1CCCCO[C@H](CN(C)C(=O)c2ccncc2)[C@H](C)CN([C@H](C)CO)C(=O)c2cc(NC(=O)C3CCCCC3)ccc2O1	1	14	-1.0
CCC(=O)N[C@H]1CC[C@@H](CC(=O)NCc2cc(F)cc(F)c2)O[C@@H]1CO	5	10	1.1
C[C@H](CO)N1C[C@H](C)[C@H](CN(C)C(=O)Nc2cccc3ccccc23)OCCCC[C@H](C)Oc2ccc(NC(=O)Nc3ccc4c(c3)OCO4)cc2C1=O	2	5	-1.8
O=C(C[C@@H]1C=C[C@@H](NC(=O)CN2CCOCC2)[C@@H](CO)O1)NCc1cccc(F)c1	0	5	-0.2
CO[C@@H]1CN(C)C(=O)c2ccc(NC(=O)C3CCOCC3)cc2OC[C@H](C)N(Cc2nccs2)C[C@H]1C	1	10	1.6
O=C(C[C@@H]1C=C[C@H](NC(=O)C2CC2)[C@@H](CO)O1)Nc1ccccc1	2	6	-1.5
C[C@H](O)C#Cc1ccc([C@H]2[C@@H](CO)N3CCCCN(C(=O)c4ccncc4)C[C@@H]23)cc1	5	-1	4.5
C[C@@H]1CCCCO[C@H](CN(C)S(=O)(=O)c2ccc(Cl)cc2)[C@@H](C)CN([C@H](C)CO)C(=O)c2cc(NC(=O)Nc3ccccc3)ccc2O1	3	7	-0.3
O=C(c1ccccn1)N1CC(=O)N2[C@@H](CO)[C@H](c3ccc(-c4cccc(F)c4)cc3)[C@@H]2C1	-2	-3	-2.7
Next section
SMILES	rRNA inh HTS	rRNA inh HTS OD600	rRNA inh HTS RFP
O=C(NC1CCCC1)[C@H]1[C@H](CO)[C@H]2Cn3c(ccc(-c4cccnc4)c3=O)[C@H]2N1CC1CC1	-2	3	0.6
O=C1c2ccccc2/C(=C\c2ccc(Br)nc2)N1c1ccccc1	11	-27	-7.4
COCC(=O)Nc1ccc2c(c1)OC[C@@H](C)N(Cc1cccnc1)C[C@@H](C)[C@@H](OC)CN(C)C2=O	-2	5	-2.8
COc1ccc(-c2cnc3c(c2)C(=O)N([C@H](C)CO)C[C@H](C)[C@H](CN(C)S(=O)(=O)c2ccc(OC)cc2)O3)cc1	2	-9	0.6
COc1ccc(NC(=O)N(C)C[C@@H]2OCCCC[C@@H](C)Oc3ccc(NC(=O)c4ccccc4)cc3C(=O)N([C@@H](C)CO)C[C@@H]2C)cc1	4	-7	-4.7
COc1ccc2c3c(n(C)c2c1)[C@@H](CO)N(C(=O)Nc1ccc(F)cc1)CC31CCN(C(=O)CN2CCOCC2)CC1	0	0	0.4
COc1ccc(C=C2CCC3C(=O)CCCC3(C)C2=O)cc1 (stereo unspecified)	-7	-23	-4.3
COc1ccc(CN(C)C[C@@H]2OCCCC[C@@H](C)Oc3ccc(N(C)C)cc3C(=O)N([C@@H](C)CO)C[C@H]2C)cc1	1	-4	-1.0
CCCNC(=O)N(C)C[C@H]1Oc2ncc(C#CC3CC3)cc2C(=O)N([C@H](C)CO)C[C@@H]1C	6	13	-0.8
O=C(NCCc1ccncc1)[C@H]1[C@H](CO)[C@H]2Cn3c(ccc(-c4ccncc4)c3=O)[C@H]2N1C(=O)C1CC1	2	2	-2.4
O=C(NC1CCCC1)N1CCCCN2[C@H](CO)[C@@H](c3ccc(-c4cccnc4)cc3)[C@H]2C1	2	14	-3.6
C[C@H]1CCCCO[C@@H](CN(C)S(=O)(=O)c2cn(C)cn2)[C@@H](C)CN([C@@H](C)CO)C(=O)c2cc(NC(=O)NC3CCCCC3)ccc2O1	-2	-6	-1.2
CCN(CC(=O)Nc1c(F)cccc1F)C(=O)c1ccc2c(c1)C(=O)N(c1ccccc1C)C2=O	3	23	0.3
COc1ccc2c3c(n(C)c2c1)[C@H](CO)NCC31CCN(Cc2ccncc2)CC1	4	9	-1.6
CCCC#Cc1ccc([C@@H]2[C@H]3CN(C(=O)c4cccc(F)c4)CC(=O)N3[C@H]2CO)cc1	-7	-55	27
CC(C)NC(=O)N(C)C[C@@H]1OCc2ccccc2-c2ccccc2C(=O)N([C@@H](C)CO)C[C@@H]1C	1	14	-6.2
COc1ccc2c3c(n(C)c2c1)[C@@H](CO)N(C(=O)c1cnccn1)CC31CCN(C)CC1	5	4	-2.1
O=C1C[C@@H](c2ccccc2)C(=O)N[C@H](c2ccc(F)cc2)C/C=C\CCN1	3	-3	-0.6
CCC[C@H]1CN(Cc2ccccc2)C(=O)[C@@H]1CC(=O)NC	1	7	-4.2
CNC[C@H]1Oc2cc(Br)ccc2S(=O)(=O)N([C@@H](C)CO)C[C@@H]1C	7&0	14&0	-0.4&-6.1
CC(C)NC(=O)N[C@H]1CC[C@H](CCNS(=O)(=O)c2ccc(Cl)cc2)O[C@H]1CO	0	8	2.6
COc1ccc(S(=O)(=O)N(C)C[C@H]2OCCCC[C@H](C)Oc3ccc(NC(=O)Nc4ccc(C(F)(F)F)cc4)cc3C(=O)N([C@@H](C)CO)C[C@H]2C)cc1	2	9	0.4
C[C@@H]1CN([C@@H](C)CO)C(=O)c2cc(-c3cncnc3)cnc2O[C@@H]1CN(C)C(=O)Cc1cccnc1	5	18	-2.8
O=C(C[C@H]1CC[C@@H]2[C@H](COC[C@H](O)CN2Cc2cccc(-c3ccncc3)c2)O1)N1CCN(c2ccccc2)CC1	-7	-19	-2.7
CO[C@H]1CN(C)C(=O)c2ccc(NC(=O)C3CC3)cc2OC[C@H](C)N(C(=O)c2cnccn2)C[C@@H]1C	2	3	1.7
Next entries follow:
SMILES	rRNA inh HTS	rRNA inh HTS OD600	rRNA inh HTS RFP
COc1ccc(NC(=O)Nc2ccc3c(c2)C(=O)N([C@H](C)CO)C[C@@H](C)[C@H](CN(C)Cc2ccc(C(=O)O)cc2)O3)cc1	0	6	-0.4
CO[C@@H]1CN(C)C(=O)c2cc(NC(=O)Nc3cccc(F)c3)ccc2OC[C@H](C)N(C)C[C@@H]1C	0	-1	1.4
C[C@H]1CN([C@@H](C)CO)C(=O)c2cc(NS(=O)(=O)c3ccc(Cl)cc3)ccc2O[C@H]1CN(C)C(=O)Nc1ccc(C(F)(F)F)cc1	2	4	-1.7
C[C@@H]1CCCCO[C@@H](CN(C)Cc2ccncc2)[C@@H](C)CN([C@H](C)CO)C(=O)c2cc(NS(=O)(=O)c3cccs3)ccc2O1	-1	-1	0.2
C[C@@H]1CCCCO[C@H](CN(C)Cc2ccc(C(F)(F)F)cc2)[C@@H](C)CN([C@@H](C)CO)C(=O)c2cc(NC(=O)Nc3ccccc3)ccc2O1	0	0	0.4
CCCC#Cc1ccc2c(c1)O[C@H](CN(C)C(=O)c1ccncc1)[C@@H](C)CN([C@@H](C)CO)S2(=O)=O	1	-2	-1.1
Cc1noc(C)c1NC(=O)Nc1ccc2c(c1)CC(=O)N([C@@H](C)CO)C[C@H](C)[C@@H](CN(C)S(=O)(=O)c1c(C)noc1C)O2	5	7	-1.8
C[C@@H]1CN([C@@H](C)CO)C(=O)c2cc(NC(=O)CCCCCC(=O)Nc3ccccc3N)ccc2O[C@H]1CN(C)C	2	2	2.2
CO[C@H]1CN(C)C(=O)c2cc(NC(=O)Nc3c(C)noc3C)ccc2OC[C@H](C)NC[C@H]1C	3	2	0.2
COCC#Cc1cnc2c(c1)C(=O)N([C@H](C)CO)C[C@H](C)[C@@H](CN(C)C(=O)C1CCOCC1)O2	7	19	-2.8
C[C@@H]1CCCCO[C@@H](CN(C)C(=O)Nc2cccc3ccccc23)[C@H](C)CN([C@@H](C)CO)C(=O)c2cc(NS(C)(=O)=O)ccc2O1	-1	-6	5.0
Cc1noc(C)c1NC(=O)N(C)C[C@H]1Oc2ccc(NC(=O)Nc3ccccc3)cc2CC(=O)N([C@@H](C)CO)C[C@H]1C	4	8	0.5
C/C=C/c1ccc([C@@H]2[C@@H](CN(C)C(=O)c3ccccn3)N(C(C)=O)[C@H]2CO)cc1	0	3	-2.9
C[C@@H]1CCCCO[C@H](CN(C)S(=O)(=O)c2ccc(F)cc2)[C@@H](C)CN([C@@H](C)CO)C(=O)c2cc(NS(=O)(=O)c3ccccc3)ccc2O1	-1	0	-0.1
CN(C)C(=O)C[C@H]1CC[C@@H]2[C@H](COC[C@H](O)CN2Cc2nccs2)O1	2	16	-0.3
C[C@H](CO)N1C[C@H](C)[C@@H](CN(C)S(=O)(=O)c2ccc(Cl)cc2)Oc2c(NC(=O)Nc3ccccc3)cccc2C1=O	-3	-15	-0.1
Cc1noc(C)c1S(=O)(=O)N(C)C[C@@H]1OCCCC[C@@H](C)Oc2ccc(NC(=O)C3CCCCC3)cc2C(=O)N([C@@H](C)CO)C[C@H]1C	-3	-5	0.9
C[C@H](CO)N1C[C@H](C)[C@@H](CN(C)C)Oc2ccc(NC(=O)Cc3ccccc3)cc2CC1=O	2	5	-1.9
O=C(C[C@H]1CC[C@@H]2[C@H](COC[C@H](O)CN2Cc2cccc(Cl)c2)O1)N1CCCCC1	-1	-7	0.2
CCCNC(=O)N1C[C@@H](C)[C@@H](OC)CN(C)C(=O)c2ccc(NC(=O)CC)cc2OC[C@H]1C	2	2	-2.3
CN1CCN(C(=O)C[C@H]2CC[C@H]3[C@@H](COC[C@@H](O)CN3S(=O)(=O)c3cccc(Cl)c3)O2)CC1	2	4	-1.8
O=S1(=O)c2ccc(Br)cc2OC2CCCC[C@@H]2N1Cc1ccccc1 (stereo partly specified)	16	7	-1.2
CCN1[C@@H]2c3ccc(-c4ccc(OC)cc4)c(=O)n3C[C@@H]2[C@@H](CO)[C@@H]1C(=O)NCCN1CCCCC1	3	11	1.4
C[C@@H]1CN([C@H](C)CO)C(=O)Cc2cc(NC(=O)C3CC3)ccc2O[C@@H]1CN(C)C(=O)Nc1ccc2c(c1)OCO2	1	13	-1.2

Screens (PubChem)

The list is partial, so the mix of outcomes need not match the whole.
